Bioassay records deposited in PubChem BioAssay by National Center for Advancing Translational Sciences (NCATS).
AmpC inh no det: AmpC beta-lactamase inhibition, detergent-free assay; AmpC nitrocefin hydrolysis, absorbance 480 nm, no detergent; potencies from a single point are estimates; Potency, µM (top dose mostly 28.7 µM), for inactives: top-dose activity change, negative = inhibition; 1.8% of 71,000 active; active = falling curve, for most hits resting on a single point; inconclusive = weak or doubtful change; inactive = flat or rising curve; further: % of control where 0% means no effect; about half of the hits show no inhibition at the top dose; a quarter of the inactives give rising signals
Target sequence (P00811 whole entry, looked up): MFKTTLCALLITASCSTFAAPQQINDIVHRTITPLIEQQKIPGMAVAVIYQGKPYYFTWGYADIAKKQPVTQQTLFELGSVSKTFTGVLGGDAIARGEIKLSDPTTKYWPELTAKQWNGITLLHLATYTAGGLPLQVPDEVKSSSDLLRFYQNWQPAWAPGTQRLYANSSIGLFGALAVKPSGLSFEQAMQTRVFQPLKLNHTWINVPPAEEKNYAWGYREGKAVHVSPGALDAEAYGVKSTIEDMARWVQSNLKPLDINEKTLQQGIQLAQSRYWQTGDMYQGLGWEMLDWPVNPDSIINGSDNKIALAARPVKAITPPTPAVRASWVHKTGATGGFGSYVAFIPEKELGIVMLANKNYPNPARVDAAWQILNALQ
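AmpC, 20 mM phosphate pH 7.0; 15 min cpd preinc, RT; start with nitrocefin (800 uM stock); A480 kinetic read, 20 s intervals, 4 min. No-enzyme wells = negative control.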
The depositor's hits bear a star; ? = inconclusive; [ ] = another dose, or the depositor's remark. Potency means the concentration at half of the fitted maximal effect. Only part of the results is shown (hit frequency here may not be typical).

SMILES	AmpC inh no det
COC(=O)C(C)NC(=O)C1CCCN1S(=O)(=O)c1cc(C)c(Cl)cc1C (centres undefined)	87%
CCOC(=O)c1cc(C#N)c(SCc2ccc(C#N)cc2)nc1C	0%
N=C(CC(=O)Nc1ccccn1)c1ccccc1	2%[5.75 µM]
COc1ccc(N2CCN(Cc3cc(=O)oc4ccc5ccccc5c34)CC2)cc1	42%
COC(=O)[C@@]1(Cc2ccc(F)cc2)[C@H]2c3cc(C(=O)N(C)C)[nH]c3C[C@H]2CN1C(=O)c1ccccc1	185%
Cc1cccc(NC(=O)C2CCN(S(=O)(=O)c3cccc4cccnc34)CC2)n1	25%
CCOC(=O)COc1ccc2c(c1)C(=O)CC(C)(c1cccnc1)O2 (centres undefined)	10%
COC(=O)[C@@]1(Cc2ccc(F)cc2)[C@H]2c3cc(C(=O)N4CCCC4)n(CCc4c[nH]c5ccccc45)c3C[C@H]2CN1C(=O)c1ccccc1	106%
CC(C)CCNc1ncnc2[nH]ncc12	-5%[5.75 µM]
CCOC(=O)c1c(C)[nH]c(C)c1C(=O)COC(=O)CNC(=O)c1ccc(OCC)cc1	19%
N#Cc1c(N)sc2c1CCN(C(=O)OCc1ccccc1)C2	-20%
Nc1nc2n(n1)C(c1c(F)cccc1Cl)CC(c1ccc(F)cc1)N2 (centres undefined)	4µM*[single pt active]
Cc1nn(C)cc1CN(C)C(=O)c1sc2cccc(Cl)c2c1Cl	132%
CCCCNc1nc2c(c(=O)[nH]c(=O)n2C)n1CCOc1ccccc1	18%
CCOC(=O)C1=C(C)NC(=O)NC1c1c(C)nn(-c2ccccc2)c1Cl (centres undefined)	28%
COc1ccc(-c2cc(C(F)(F)F)n3nc(C)cc3n2)cc1	24%
CCOC(=O)C1=C(NC(=O)c2ccc(Br)o2)Nc2ccccc2N=C1	-2%
CC1=CCC2(CO)COC(c3ccccc3O)C1C2 (centres undefined)	-2%
CCCC(c1nnnn1CC1CCCO1)N1CCN(c2cc(Cl)ccc2C)CC1 (centres undefined)	115%
Cc1cc(C)cc(OCC(=O)Nc2cccc(-c3nnc(-c4ccco4)o3)c2)c1	29%
Cc1ccc(C(=O)CSc2nnc(CNc3ccc(C)cc3C)o2)cc1	-17%
O=C(CN(CC1CCCO1)C(=O)CCC(=O)Nc1nccs1)NCC1CCCO1 (centres undefined)	9%
O=C(NC1(O)C(=O)c2ccccc2C1=O)c1ccccc1	-12%
COc1cc(OC)cc(C(=O)NCCn2ccc3ccccc32)c1	75%

Molecules above that have a thiophene ring, fused or not:
SMILES	AmpC inh no det
N#Cc1c(N)sc2c1CCN(C(=O)OCc1ccccc1)C2	-20%
Cc1nn(C)cc1CN(C)C(=O)c1sc2cccc(Cl)c2c1Cl	132%

Continued:
SMILES	AmpC inh no det
Cc1cc(C(=O)CSc2nnc(-c3cccs3)n2Cc2ccccc2)c(C)n1C	88%
CS(=O)(=O)c1ccc(-c2nn[nH]n2)cc1	-8%
CS(=O)CSc1nc2c(cc1C#N)CCCC2 (centres undefined)	-8%
Cc1ccc(C(c2sc3ncnn3c2O)N2CCCCC2)cc1 (centres undefined)	44%
COCCNc1nc(C)nc2c1nc(-c1ccccc1)n2CCN(C)C	18%
CNC(=O)[C@H](C)/C=C(\c1cccnc1)C(NC(=O)OCc1ccccc1)c1ccc(C(=O)OC)cc1 (some centres undefined)	16%
CCN1CCN(c2ncc(C(=O)N3CCN(c4ccccc4OC)CC3)c3ccccc23)CC1	146%
CC(C)c1cccc2nc3c(c(C(C)(C)C)c12)Cn1c-3cccc1=O	118%
CCOc1ccc(-c2nnc(N(CC)C(=O)C3CCC3)s2)cc1	83%
Cc1noc(C)c1S(=O)(=O)N1CCC(C(=O)Nc2ccc(OC(F)(F)F)cc2)CC1	-1%
CC(=O)c1nnn(-c2nc(N3CCCC3)nc(N(c3ccccc3)c3ccccc3)n2)c1C	31%
CCOc1ccccc1C(=O)Nc1ccccc1C(N)=O	-5%

Compounds above that have an aryl methoxy group, in the order listed:
SMILES	AmpC inh no det
COc1ccc(N2CCN(Cc3cc(=O)oc4ccc5ccccc5c34)CC2)cc1	42%
COc1ccc(-c2cc(C(F)(F)F)n3nc(C)cc3n2)cc1	24%
COc1cc(OC)cc(C(=O)NCCn2ccc3ccccc32)c1	75%
CCN1CCN(c2ncc(C(=O)N3CCN(c4ccccc4OC)CC3)c3ccccc23)CC1	146%

An excerpt of these results, with bars between the fields:
Molecule | AmpC inh no det
Cc1noc(C)c1S(=O)(=O)N1CCC(C(=O)Nc2ccc(OC(F)(F)F)cc2)CC1 | -1%
CC(=O)c1nnn(-c2nc(N3CCCC3)nc(N(c3ccccc3)c3ccccc3)n2)c1C | 31%
CCOc1ccccc1C(=O)Nc1ccccc1C(N)=O | -5%

(listing goes on)
SMILES	AmpC inh no det
O=C(OCc1cc(-c2ccccc2)no1)c1ccc2ccccc2n1	8%
CN(Cc1ccco1)c1ncnc2ccc(-c3ccoc3)cc12	78%
Cc1ccccc1N(CC(=O)NCC1CCCO1)C(=O)C1(C)CC(=O)N=C2C=CC=CN21 (centres undefined)	-9%
CCOC(=O)c1ccc(NC(=O)C(C)N2C(=O)c3ccccc3C2=O)cc1 (centres undefined)	-2%
CCOC(=O)CSc1nc2ccccc2n1CC(=O)N(C(C)C)C(C)C	14%
CSc1ccccc1NC(=O)c1cnc2scc(C)n2c1=O	48%
O=C(NCc1ccccc1)c1cc(-c2ccco2)on1	-20%
CCOc1ccc(N(CC(=O)NC2CCCC2)C(=O)CCC(=O)Nc2ccccn2)cc1	4%
Cc1noc(C)c1S(=O)(=O)N1CCCC(C(=O)N2CCN(C3CCCCC3)CC2)C1 (centres undefined)	4µM*[single pt active]
Cc1ccc(-c2noc(CCC(=O)N3CCCc4ccccc43)n2)cc1	49%
O=C1CN(S(=O)(=O)c2ccccc2)CC(=O)N1CCc1ccccc1	6%
CCOc1ccc(NC(=O)C2C3C=CC4(CN(C(C(=O)OC)C(C)C)C(=O)C24)O3)cc1 (centres undefined)	44%
Cc1ccc(CNC(=O)CCNC(=O)Cn2ccc3ccccc3c2=O)o1	6%
OCC#CCSc1nnc(-c2ccc(Br)cc2)o1	17%
O=C(Nc1ccc2ccccc2c1)c1cccnc1	9%
O=C(CSCc1ccccn1)Nc1ccccc1	6%
Cn1c(=O)c2c(SCc3ccccc3)nc(-c3ccco3)nc2n(C)c1=O	-8%
Cc1cccc(N(C(=O)CCC(=O)Nc2cc(C)on2)C(C(=O)NC2CCCC2)c2ccncc2)c1 (centres undefined)	56%
COc1ccc(-n2c(SCc3nnc(-c4ccccc4)o3)nnc2-c2ccccc2)cc1	43%
O=C(c1cccc(N2CCCC2=O)c1)N1CCC2(CC1)OCCO2	-3%
c1csc(-c2csc3ncnc(NCCCN4CCOCC4)c23)c1	1%
OCCN(Cc1ccccc1)Cc1ccc(F)c(F)c1	13%
Cc1csc(NC(=O)CSc2nnc(C)s2)n1	-2%
O=C(NCc1cccs1)C1CCCN(S(=O)(=O)c2ccc3c(c2)OCO3)C1 (centres undefined)	-12%
COC(=O)CSc1nnc(CNc2ccc(F)cc2)o1	-4%
CS(=O)(=O)N1CCC2(CC1)CN(C(c1ccccc1)c1ccccc1)C2	14%
Cn1cnnc1SCC(=O)Nc1ccccc1	-2%
CC(=O)Nc1c(C(=O)N2CCOCC2)sc2nc3c(cc12)COC(C)(C)C3	2%
COc1ccc(OC)c(NC(=O)C2C3CC4OC(=O)C2C4C3)c1 (centres undefined)	-3%
COc1ccc(N2CCN(CCNC(=O)c3c(C)cc(=O)oc3C)CC2)cc1	25%
CCN(CC)C(=O)CSc1nnc([C@@H](NC(=O)OC(C)(C)C)C(C)C)o1	19%
Cc1cc(C)c2c(=O)[nH]n(C3CC(C)N(C)CC3C)c2n1 (centres undefined)	-16%
COc1ccc2c(c1)c1c3n2CCN(C)C3=NCC1	-2%
Cc1nn(C)c(C)c1NS(=O)(=O)c1ccccc1	-7%
O=C(O)CCc1ccc(-c2ccccc2)o1	-9%
NC(=O)C1CCCN(C(=O)c2ccc(Cl)cc2)C1 (centres undefined)	0%
CCNC(=O)CC1C(=O)N(c2ccc(F)cc2)C(=O)N1Cc1ccccn1 (centres undefined)	14%
Cc1cc(NC(=O)COC(=O)C(Cc2ccccc2)NC(=O)c2ccco2)no1 (centres undefined)	5%
Nc1ccccc1NC(=O)c1ccccc1	5%
CC(C)NC(=O)C1CCCN(c2nnc(-n3cccc3)s2)C1 (centres undefined)	16%
O=C(NCCN1CCN(C(=O)Nc2ccccc2)CC1)Nc1ccccc1	4µM*[single pt active]
O=C(c1ccco1)N1CCN(S(=O)(=O)c2ccc(Oc3ccccc3)cc2)CC1	85%
Cc1cc(CC(=O)O)n(C)c1C(=O)c1ccc(Cl)cc1	-11%
O=C(NCc1ccco1)C1CCN(S(=O)(=O)c2ccc(-n3cnnn3)cc2)CC1	-11%
Cc1nc2ccc(NC(=O)NCc3ccco3)cc2s1	-11%
CCOC(=O)Cc1nnc2c(Nc3ccc(Cl)cc3)nc3nonc3n12	13%
O=C(NCc1ccncc1)c1c(F)c(F)c(F)c(F)c1F	-2%
CN(C)CCNC(=O)c1cc2c(=O)n(C)c3ccccc3c2n1C	?

Single values from the list:
Entry for O=C(NCc1ccco1)C1CCN(S(=O)(=O)c2ccc(-n3cnnn3)cc2)CC1 in AmpC inh no det: -11%
Entry for Nc1ccccc1NC(=O)c1ccccc1 in AmpC inh no det: 5%

Further entries follow.
SMILES	AmpC inh no det
O=C(Cn1cnc2c(nnn2Cc2ccccc2)c1=O)c1ccccc1	-9%
O=C(c1ccco1)N1CCN(c2nc(C3CC3)nc3sc4c(c23)CCCC4)CC1	93%
O=C(NCC(c1cccnc1)N1CCOCC1)c1cccc(Cl)c1 (centres undefined)	-3%
O=C(O)[C@@H]1CCN(Cc2oc(CO)cc(=O)c2O)C1	-3%[5.75 µM]
Cc1ccc(C(=O)CSc2n[nH]c(C)n2)cc1	8%
CCOC(=O)CSc1nc2ccccc2n1CC(=O)N1CCN(c2ccccc2)CC1	51%
O=C(NCCCN1CCOCC1)c1ccc(CS(=O)(=O)Cc2ccccc2Cl)o1	-8%
O=C(CCn1c(=O)oc2ccccc21)NCCN1CCc2ccccc2C1	13%
Cn1c(CCN2CCCCC2)nc2cc(NS(=O)(=O)c3ccccc3)ccc21	-13%
COc1cc(OC)cc(-c2nnc(SCC(=O)N(Cc3ccccc3)C(C)(C)C)o2)c1	49%
O=C(CSc1nnc(CNC(=O)c2c(F)cccc2Cl)o1)c1ccccc1	3%
NC(=O)c1ccsc1NC(=O)c1nc(-c2ccccc2)n(-c2ccccc2)n1	-24%
CC1=C(C(=O)OCCOc2ccccc2)C(c2ccc(C)o2)C2=C(CC(C)(C)CC2=O)N1 (centres undefined)	11%
CCOC(=O)C(C)Sc1nc2c(c(=O)[nH]c(=O)n2C)n1C/C=C(/C)Cl (centres undefined)	29%
CCOC(=O)N1CCN(C(=O)CSc2nnc(-c3c[nH]c4ccccc34)n2CCOC)CC1	49%
CN(C)S(=O)(=O)N1CCC(CCCC2CCN(S(=O)(=O)N(C)C)CC2)CC1	16%
CCOC(=O)CSc1nc2ccccc2c(=O)n1CC	-4%
O=C(NCCc1nc2ccccc2[nH]1)Nc1ccccc1	-12%
CC1CCCCC1NC(=O)c1ccc(N2CCCC2=O)cc1 (centres undefined)	-3%
CC1CC(OC(=O)c2ccccc2O)CC(C)(C)C1 (centres undefined)	-4%
C/C(N)=C(/C#N)C(=O)CSc1ncnc2ccccc12	3%
Cc1cccc(-c2noc(CCCC(=O)Nc3cccnc3)n2)c1	34%
Cn1c(SCC(=O)Nc2ccc3cn[nH]c3c2)nnc1-c1cnccn1	0%
COc1ccccc1N1CCN(C(=O)C2CCN(S(=O)(=O)N3CCOCC3)CC2)CC1	89%
CCOC(=O)c1sc2nc(N3CCOCC3)c3c(c2c1N)CCC3	78%
Cc1ccc2nc(Nc3nc(=O)c4ccccc4n3C)nc(C)c2c1	15%
COC(=O)[C@@]1(Cc2ccc(F)cc2)[C@H]2c3cc(C(=O)N(C)C)n(CCc4ccccn4)c3C[C@H]2CN1C(=O)c1ccccc1	152%
O=C(CSc1ccc2nnc(-c3cccs3)n2n1)N1CCOCC1	5%
O=C1CN(C(=O)COC(=O)C2=COCCO2)c2ccccc2N1	-19%
CC#CCN(CC#CC)S(=O)(=O)c1ccc(S(=O)(=O)N2CCOCC2)cc1	64%
CCOC(=O)c1ccc(NC(=O)Nc2ccn(C)n2)cc1	3%
CCCc1nnc(SCC(=O)O)n1/N=C/c1ccc2c(c1)OCO2	-2%
Cc1cc(SCC(=O)Nc2ccccc2)nc(C)n1	1%
O=C(O)C1OC(C(=O)O)C2C1C(F)(F)C2(F)F (centres undefined)	7%
Cc1nc2c3ccccc3n(CC(=O)c3ccc(F)cc3)c(=O)n2n1	4µM*[single pt active]
CC(=O)Oc1ccc(/C=C\C(=O)C[C@@H]2O[C@@H](Oc3cc(OC(C)=O)c4c(c3)O[C@@H](c3ccc(OC(C)=O)cc3)CC4=O)[C@H](OC(C)=O)[C@H](OC(C)=O)[C@@H]2OC(C)=O)cc1	51%
CCOC(=O)CC1C(=O)NC2CCCCC2N1C(=O)Nc1ccc(Cl)cc1 (centres undefined)	54%
C[C@@H](C(=O)O)/C(=C/c1ccc2c(c1)OCO2)C(=O)O	0%[5.75 µM]
CCc1nnc(NC(=O)CSc2nnc(Cc3ccccc3)n2-c2ccccc2)s1	43%
Cc1cccc(CCNC(=O)C2CCN(S(=O)(=O)c3c(C)nn(C)c3C)CC2)c1	60%
CCOc1cc(C(=O)NCC(C)CN(C)C)cc(OCC)c1OCC (centres undefined)	0%
COC(=O)[C@@]1(Cc2ccccc2)[C@H]2c3cc(C(=O)N(C)C)n(Cc4ccsc4Br)c3C[C@H]2CN1C(=O)c1ccccc1	137%
Cn1cc(CNC(=O)C2CCCCC2)cn1	-1%
